Mtb growth = Mycobacterium tuberculosis H37Rv growth inhibition, cell based, confirmatory dose response (AID 1949); inhibition, % at 10 µg/mL, or IC50 in µg/mL where a hit was titrated; hit rate 1.6% among 100,000; most inactive calls were filed without a number and no value below 0 was filed;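 active = confirmed in a dose series; inconclusive = about 50% or more but not retested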;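 also: bacteria grown 7 days with compound before Alamar blue readout; 0% = untreated bacteria and 100% = reference antibiotic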
Starred values were filed as active, the others as inactive; i = inactive; u = inconclusive.

SMILES	Mtb growth
O=C(Nc1nncs1)C(Cc1ccccc1)N1C(=O)c2ccccc2C1=O (stereo unspecified)	i
CC(C)c1ccc(OCC(=O)N2C(C)CCCC2C)c(Br)c1 (stereo unspecified)	i
O=C(NC(=S)Nc1ccc(N2CCOCC2)cc1)c1ccccc1F	i
CCCCc1cc(=O)oc2c(C)c(OCC(=O)c3ccc(C)cc3)ccc12	i
CCc1cccc(CC)c1NC(=O)C1CC(=O)N(c2ccc(Br)cc2)C1 (stereo unspecified)	i
Cc1cc(C)c2c(=O)[nH]c(SCC(=O)N3CCOCC3)nc2n1	i
Oc1ccccc1CNCc1ccccc1	i
COc1ccc(NC(=O)C(C)Sc2ccc(Cl)cc2)c(OC)c1 (stereo unspecified)	i
CCCOc1ccc(NC(=O)CC2C(=O)N(c3cccc(C(F)(F)F)c3)C(=S)N2CC(=O)OC)cc1 (stereo unspecified)	i
COc1ccc(Nc2nc(N3CCN(CCO)CC3)nc3ccccc23)c(OC)c1	2.1%
CCOCc1nnc(NC(=O)c2cccc(NC(=O)c3ccccc3)c2)s1	27.0%
CC(C)NC(=O)Nc1ccc2snnc2c1	i
CCOc1ccc(C(=O)Nc2ccc(N(CC)CC)cc2C)cc1Cl	24.6%
NC(=O)CN1CCN(c2ccc(F)cc2)CC1	i
CC1=CC(C)(C)N(C(=O)CSc2nccn2C)c2cc(C)ccc21	i
O=C(Cc1cccs1)Nc1ccc(Cl)c(C(F)(F)F)c1	31.6%
COc1ccc(NC(=O)Nc2ccccc2C(C)=O)cc1	i
O=C(CCC1CCCC1)NCCc1cccc(Cl)c1	i
CC(=O)Nc1ccc2nc(NC(=O)c3cc4ccccc4o3)sc2c1	i
COC(=O)c1c(-c2ccc(C)cc2)csc1NC(C)=O	i
Cc1ccc(NC(=O)C2CCN(S(=O)(=O)c3ccc(Br)cc3)CC2)cc1Cl	i
CCCC(=O)N1CCN(c2ccc(NC(=O)c3cccc(C)c3OC)cc2Cl)CC1	19.6%
COc1ccccc1-c1cn(S(=O)(=O)c2ccc(C)cc2)nc1N	i
COc1cccc(OC)c1C(=O)NN1C(=O)c2ccccc2C1=O	1.4%
CCOC(=O)c1c(-c2ccc(OC)cc2)csc1NC(=O)CN1CCOCC1	3.5%

(next part)
SMILES	Mtb growth
O=C(Oc1cccc(C(=S)N2CCOCC2)c1)c1cc(Cl)ccc1Cl	i
Cc1cc(C(=O)N2CCCCCC2)cs1	i
CC12CCC(C(N)=O)(C(=O)C1=O)C2(C)C (stereo unspecified)	i
Cc1nc2sc(C(=O)OC(C)C)c(N)c2c(C)c1C	i
COc1ccc(OC)c(N(CC(=O)Nc2ccc(Br)cc2F)S(C)(=O)=O)c1	i
CCOc1ccc(NC(=O)CN(c2cccc(C)c2C)S(=O)(=O)c2ccc(C)cc2)cc1	i
O=Cc1cccn1Cc1ccccc1[N+](=O)[O-]	i
O=C1c2ccccc2C(=O)N1Cc1ccco1	i
O=[N+]([O-])c1ccc(-c2csc(N3CCC(c4ccccc4)CC3)n2)cc1	i
Cc1cccc(NC(=O)c2ccc(C(C)C)cc2)n1	i
O=C(Cc1ccccc1)Nc1scc(-c2ccccc2)c1C(=O)N1CCCCC1	1.7%
Cc1cc(C)c2c(N)c(S(=O)(=O)c3ccc(C(C)(C)C)cc3)sc2n1	3.5%
CC(C)NC(=S)NCc1cccs1	i
COc1ccc(NC(=O)c2ccccc2NC(=O)c2ccccc2)cc1	i
CC(C)CN(CC(C)C)C(=O)c1ccco1	i
O=C(COc1ccc(Br)cc1)c1ccc(F)cc1	10.7µg/mL*
CCN(CC)C(=O)Cn1c(S(=O)(=O)Cc2ccccc2)nc2ccccc21	i
Cc1cc(C(=O)Nc2ccccn2)cs1	i
COc1cc(CNc2ccc(N3CCN(C(C)=O)CC3)cc2)ccc1OCc1ccc(F)cc1	i
COc1cc(NC(=O)CSc2ccc(Cl)cc2)c(OC)cc1Cl	i
COc1ccc(-c2c3c(=O)n(C)c(=O)n(C)c3cn2-c2ccccc2OC)cc1	i
O=c1c(-c2ccccc2)coc2c(CN3CCN(Cc4ccccc4)CC3)c(O)ccc12	i
Nc1c(C(=O)C23CC4CC(CC(C4)C2)C3)sc2nc(-c3ccncc3)ccc12	i
CC(=O)C1(C)N(O)C(C)(C)C(c2ccc(Br)cc2)=[N+]1[O-] (stereo unspecified)	i
CCC(Sc1nc(-c2cccc(OC)c2)c(C#N)c(=O)[nH]1)C(=O)Nc1nnc(C(C)C)s1 (stereo unspecified)	i

Next part.
SMILES	Mtb growth
COc1ccccc1NC(=O)C1CCN(C(=O)c2ccc(Cl)cc2Cl)CC1	0.8%
CCN(C(=O)CSc1ncc(C#N)c(N)n1)c1ccccc1	i
CCOC(=O)c1ccc(N2C(=O)CC(N3CCC(c4nc5ccccc5[nH]4)CC3)C2=O)cc1 (stereo unspecified)	i
CC(=O)Nc1ccc(S(=O)(=O)N2CCC(N3CCCCCC3)CC2)cc1	i
O=C(CCSc1ccc([N+](=O)[O-])cc1)Nc1cccc2cccnc12	2.8%
N/C(=N\OC(=O)CC1CCCCC1)c1ccc(Br)cc1	i
O=S(=O)(NCCc1ccccc1)c1c(F)cccc1F	i
C=CCNC(=O)CN(Cc1ccc(Cl)cc1Cl)S(=O)(=O)c1ccc(Cl)cc1	0.8%
COc1ccc(C(C)(C)C)cc1S(=O)(=O)N1CCCC1	1.8%
CSc1nc(-c2ccco2)nn1S(C)(=O)=O	i
COc1ccc(NC(=S)NC(=O)CCc2ccccc2)cc1	1.92µg/mL*
CCCCn1c(-c2ccc([N+](=O)[O-])cc2)n[nH]c1=S	i
Cc1ccc(N/C=C(/C#N)c2nc(-c3ccc4c(c3)OCO4)cs2)cc1C	i
CCc1sc(C(=O)Nc2nnc(C(F)(F)F)s2)cc1Br	1.1%
Cc1ccc(S(=O)(=O)N(CC(=O)N2CCN(c3ccccc3)CC2)c2cccc(C)c2C)cc1	i
CN(C(=O)c1cccc(F)c1)C(C)(C)C	i
C=CCn1c(N)cc(=O)nc1SCC(=O)N(c1ccccc1)c1ccccc1	i
COc1ccccc1OCC(=O)N1CCN(C(c2ccccc2)c2ccccc2)CC1	3.0%
CCN(CC)CCN1C(=O)C(O)=C(C(=O)c2cccs2)C1c1cc(OC)ccc1OC (stereo unspecified)	i
Cc1c(CCC(=O)O)c(=O)oc2cc(O)c(Cl)cc12	i
C=CCNc1cc(N2CCN(C(=O)c3ccc(Cl)c(Cl)c3)CC2)ccc1[N+](=O)[O-]	4.8%
Cc1cc(C)cc(OCC(=O)N2CCN(C)CC2)c1	i
COC(=O)C1=CNC=C(C(=O)OC)C1c1cccc2ccccc12	i
Cc1ccc(CNC(=O)C2CCN(C(=O)c3cccc(Cl)c3)CC2)cc1	i
OC(COc1ccc(Br)cc1)CN1CCN(c2ccccc2F)CC1 (stereo unspecified)	1.0%

Continued:
SMILES	Mtb growth
Cc1cc(C)c2[nH]c3nc4ccccc4nc3c2c1	1.4%
CCc1cccc2c(C=O)cn(CC(=O)Nc3cccc(OC)c3)c12	i
CN1CCN(NC(=O)c2cccc(C(F)(F)F)c2)CC1	2.2%
CSc1nc(C)cc(OCCO)n1	i
O=C(Nc1ccc(Br)cc1)C1C2CC3OC(=O)C1C3C2 (stereo unspecified)	i
O=C(O)CNC(=O)c1ccc(NS(=O)(=O)c2ccccc2)cc1	i
CC(=O)c1cccc(NC(=S)N2CCN(C/C=C/c3ccccc3)CC2)c1	i
COc1cc(C=O)ccc1OC(=O)c1ccc(C(C)C)cc1	i
Cc1cc(C)cc(OCC(=O)Nc2cc(NC(=O)COc3cc(C)cc(C)c3)cc(C(=O)O)c2)c1	11.9%
CCCCC(O)(c1ccc(N(C)C)cc1)c1ccc(N(C)C)cc1	2.1%
CCSc1ccccc1C(=O)Nc1cc([N+](=O)[O-])ccc1OC	9.4%
O=[N+]([O-])c1cccc(C2CC(c3ccc(F)cc3)=NN2c2ccccc2)c1 (stereo unspecified)	49.7%
CCN(Cc1cc2ccccc2[nH]c1=O)C(=O)CCc1ccccc1	i
CCN(CC)C(=O)COc1ccccc1F	i
Nc1ccc(Oc2ccc(Cl)c3cccnc23)c(Cl)c1	i
O=C(O)c1ccc(N2CCN(CCO)CC2)c([N+](=O)[O-])c1	i
COc1ccc(-c2c3c(=O)n(C)c(=O)n(C)c3cn2C)cc1	i
Cc1ccc(C)c(N(CC(=O)NCc2ccccc2Cl)S(C)(=O)=O)c1	i
Cc1ccc(C(=O)NC(=S)Nc2ccc(C(=O)O)cc2)cc1	0.1%
CCOc1ccccc1NC(=S)Nc1cccc(C)c1	i
CCOC(=O)Nc1cccc(NC(=O)c2ccc(SC)cc2OC)c1	i
O=C(NC(=S)Nc1ccccc1F)c1ccc2ccccc2c1	0.3%
COc1cc(/C=C/C(=O)NCc2ccc3c(c2)OCO3)cc(OC)c1OC	i
Cc1ccc(-c2csc(NC(=O)Cc3ccc(Br)cc3)n2)s1	i
CCCOc1c(Br)cc(CNc2ccccc2Cl)cc1OC	4.1%

Remaining list, next part:
SMILES	Mtb growth
O=S(=O)(NC1CCCC1)c1ccc2c(c1)OCCO2	i
COc1cc([N+](=O)[O-])ccc1NC(=S)N1CC(C)OC(C)C1 (stereo unspecified)	i
CCOC(=O)C1C(c2cccc(F)c2)NC(=O)NC1(O)C(F)(F)F (stereo unspecified)	i
O=c1nc(N(c2ccccc2)c2ccccc2)[nH]c(=O)[nH]1	i
Cc1ccccc1OCCNC(=O)c1ccc2ccccc2n1	u
COc1ccc(NC(=O)c2c(N)sc3c2CCCC3)cc1	i
COC(=O)c1cccc(NC(=O)c2cc(OC)cc(OC)c2)c1C	i
O=[N+]([O-])/C=C\c1ccc(N2CCOCC2)cc1	i
O=C(Nc1cccnc1)Nc1ccc2c(c1)OCO2	i
Cc1scc(C(=O)N2CCCC2)c1C	2.9%
O=C(CN(c1cccc([N+](=O)[O-])c1)S(=O)(=O)c1ccccc1)NC1CCCCCC1	i
CC(=O)Oc1ccc(OC(C)=O)c(S(=O)(=O)c2ccc(C)c(C)c2)c1	i
COC(=O)c1c(-c2cccc(C)c2)csc1NC(=O)C1CCCO1 (stereo unspecified)	4.3%
N#Cc1ccccc1NC(=O)c1ccc(-c2ccccc2[N+](=O)[O-])o1	i
COc1ccc(C(=O)c2oc3ccccc3c2NC(=O)c2ccc([N+](=O)[O-])cc2)cc1	i
Cc1cccc(Nc2nc(-c3cc4ccccc4oc3=O)cs2)n1	i
Cc1n[nH]c(=S)n1NCc1ccc2c(c1)OCO2	2.0%
N#Cc1cn(-c2ccccc2)nc1-c1ccc(F)cc1	3.1%
COc1ccc(S(=O)(=O)N(C(C)=O)c2ccc3oc4c(c3c2)CCCC4)cc1[N+](=O)[O-]	6.7%
CCN(CC)c1ncnc2c1sc1nc(C)cc(C)c12	i
CCCOc1cc(O)c(-c2n[nH]c(C)c2Oc2ccccc2)cc1CC	3.3%
CCOCCC(=O)NC(C)CCc1ccccc1 (stereo unspecified)	i
CCOc1cccc(C(=O)NC(=S)Nc2ccc(NC(=O)c3cccs3)cc2)c1	i
COCCCNC(=O)c1cc(-c2ccccc2Cl)nc2ccccc12	i
COc1cccc(OCCOc2ccccc2OC(C)C)c1	2.2%

Continuation.
SMILES	Mtb growth
C=CCn1c(SCc2c(C)noc2C)nc2sc3c(c2c1=O)CCCCC3	i
CCCc1cc(=O)oc2c(C)c(OCC(=O)O)ccc12	i
COc1ccc(NC(=S)Nc2cccc(C(F)(F)F)c2)c([N+](=O)[O-])c1	23.3µg/mL*
Clc1cccc(OCCOCCN2CCCCC2)c1	i
O=S(=O)(Nc1ccc2c(c1)ncn2-c1ccccc1)c1ccccc1	i
CCCCOc1ccccc1C1C(C(=O)OC)=CN(C2CCCCC2)C=C1C(=O)OC	7.1%
Cc1ccc(NC(=O)C2CC2)c([N+](=O)[O-])c1	i
CC(C)(C)c1ccc(-c2noc(CCC(=O)NC3CCCC3)n2)cc1	i
Cc1ccc(N(CCCCN2C(=O)c3ccccc3C2=O)C(=O)c2ccc(Br)cc2)cc1	i
O=C1c2ccccc2C(=O)N1CCCCN(C(=O)c1cccc(Cl)c1)c1ccc(Cl)cc1	i
CN(C)S(=O)(=O)c1ccc(N2CCOCC2)nc1	i
Cc1ccc(S(=O)(=O)N(CC(=O)NCc2ccccn2)Cc2cccc(Cl)c2)cc1	i
COC(=O)c1ccccc1OC(=O)c1cc(-c2ccccc2)nc2ccccc12	i
CN(c1ccc(CN2C(=O)c3ccccc3C2=O)cc1)S(C)(=O)=O	i
COc1cc(C(N)=O)cc(Cl)c1OC	i
CCOc1cc(C(=O)Nc2cc(C)c(Cl)cc2OC)cc(OCC)c1OCC	2.3%
CN(C)S(=O)(=O)N1CCC(Cc2ccccc2)CC1	i
CC(Sc1ncnc2sc3c(c12)CCCC3)C(=O)O (stereo unspecified)	i
Cc1ccc(S(=O)(=O)Nc2cccc(N(C)S(C)(=O)=O)c2)cc1[N+](=O)[O-]	i
COc1cccc(OC)c1OCCCOc1cccc2cccnc12	3.7%
Cc1[nH]c2ccccc2c1C(=O)CSc1ncn[nH]1	1.2%

These rows are one share of the data; rates above refer to the full screens.
